HNF4A DNA FP = change in binding of human HNF4A to DNA, primary screen, biochemical, fluorescence polarization, FITC-DNA; 360,000 tested, 0.3% active; AID 1224865, 2016; activity change, % at 10 µM; Hepatocyte nuclear factor 4-alpha (Homo sapiens), P41235; 1 h; in the data active = activity change above about 30%, passing the limit was not always enough;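 also: controls were the assay level and a saturating level of protein; the project sought stronger binding though the title names inhibitors; some compounds called inactive have numbers as strong as hits; positive values seem to mean higher polarization but the record does not say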
Target sequence (P41235 whole entry, looked up): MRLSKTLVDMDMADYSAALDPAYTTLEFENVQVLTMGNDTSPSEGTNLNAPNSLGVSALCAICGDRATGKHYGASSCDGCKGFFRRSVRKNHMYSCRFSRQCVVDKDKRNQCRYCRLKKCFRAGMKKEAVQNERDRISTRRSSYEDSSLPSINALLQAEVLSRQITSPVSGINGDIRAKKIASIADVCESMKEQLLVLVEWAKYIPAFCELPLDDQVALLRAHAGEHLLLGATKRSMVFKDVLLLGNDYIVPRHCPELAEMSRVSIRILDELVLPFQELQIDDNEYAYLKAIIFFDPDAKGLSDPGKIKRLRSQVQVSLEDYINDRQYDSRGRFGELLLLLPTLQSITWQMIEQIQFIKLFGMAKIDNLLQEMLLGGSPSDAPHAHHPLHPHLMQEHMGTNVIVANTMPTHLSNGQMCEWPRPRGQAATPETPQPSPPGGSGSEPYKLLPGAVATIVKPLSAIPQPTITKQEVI
* hit, by the source's call.

| mol | HNF4A DNA FP |
| --- | --- |
| CC(=O)c1cccc(-c2ccnc3c2CC(C(=O)N2CCN(C)CC2)O3)c1 (stereo unspecified) | -1.6 |
| COC(=O)c1ccc2nc(-c3ccc(F)cc3)c(Cc3cccc(Cl)c3)n2c1 | 8.0 |
| COc1ccc(CCNC(=O)c2ccc(Br)o2)cc1Br | 0.4 |
| COc1ccc(OCCN2CCC(C(=O)NC(c3ccc(C)cc3)c3ccccn3)CC2)cc1 (stereo unspecified) | -5.0 |
| CC1(C(=O)NS(=O)(=O)c2cccc(Cl)c2)CCN1C(=O)CCc1ccccc1 (stereo unspecified) | 3.2 |
| CCOC1=C2[C@@H](CN(S(=O)(=O)c3ccc(C)cc3)[C@H]2c2ccccc2F)[C@H]2C(=O)N(CC)C(=O)[C@H]2C1 | 0.7 |
| COC(=O)[C@]12CCCCC=C1N(Cc1ccccc1)C(=O)[C@H](CC(=O)NCCCCc1ccccc1)C2 | -6.8 |
| CC(=O)N1CCc2cc(NC(=O)C3(C)CCN3CCc3ccccc3)ccc21 (stereo unspecified) | 0.1 |
| Fc1ccc(-c2nc3c4ccccc4ccn3c2Cc2ccccc2C(F)(F)F)cc1 | 8.6 |
| Cc1ccc(CN2CC(N3CCN(CCO)CC3)CS2(=O)=O)cc1 (stereo unspecified) | 0.5 |
| Cc1cccc(CN2CCN(C3CN(Cc4cn(Cc5cccc(Cl)c5)nn4)S(=O)(=O)C3)CC2)c1 (stereo unspecified) | 4.6 |
| CNc1cnc(-c2cccc(C(=O)N3CCOCC3)c2)cn1 | -1.5 |
| COc1ccc(CCNC(=O)Nc2nc(C(N)C3CCCCC3)cs2)cc1OC (stereo unspecified) | 2.4 |
| COc1cc(C23CCCN(CCC(C(C)(C)C)C2)C32OCCO2)cc(OC)c1OC (stereo unspecified) | 1.8 |
| Cc1ccccc1N=C(c1ccccc1)C1C(=O)c2ccccc2C1=O | -1.3 |
| COc1cc(NCCCn2cnc3c(OC)ncnc32)cc(OC)c1OC | 6.1 |
| C[C@@H]1CN([C@H](C)CO)S(=O)(=O)c2ccc(Br)cc2O[C@@H]1CN(C)C(=O)NC1CCCC1 | -9.9 |
| Cn1ccc2c(N3c4ccccc4CCc4ccccc43)cc3c(c21)C1CCC3O1 (stereo unspecified) | 29 |
| CCOc1cc(OCC)cc(C(=O)N2CCC[C@@H]2C(=O)N2CCC[C@@H]2C(=O)NCc2ccccc2Cl)c1 | 0.5 |
| Cn1c(=O)c2cc(NC(=S)NCc3ccccc3F)ccc2n1C | -2.3 |
| CC(=O)c1ccc(OCC(=O)NC(=O)NC2CCCC2)cc1 | 1.7 |
| CCOC(=O)[C@]12CCCC=C1N(Cc1ccc3c(c1)OCO3)C(=O)[C@H](CC(=O)NCC13CC4CC(CC(C4)C1)C3)C2 | 2.4 |
| CC(=O)C1=CCC(c2cccc3ccccc23)N(S(=O)(=O)c2ccc(C)cc2)C1 (stereo unspecified) | 1.4 |
| O=S(=O)(NN=Cc1cccc(Cl)c1)c1ccccc1 | 0.7 |
| COc1ccc(-c2cc3nc(NCc4ccc(N(C)C)cc4)n(C)c(=O)c3s2)cc1OC | 1.9 |
| OC(c1ccc2ccccc2c1)c1ncc(-c2cccc3ccccc23)[nH]1 (stereo unspecified) | -1.3 |
| Cc1ccc(S(=O)(=O)N2[C@H](CC(=O)c3cccs3)OC[C@@H]2C)cc1 | -1.7 |
| C[C@@H]1CN([C@H](C)CO)C(=O)CCCn2nncc2CO[C@H]1CN(C)Cc1ccc(Cl)c(Cl)c1 | 4.4 |
| Cc1ccc(C(O)c2ncc(-c3ccc4ccccc4c3)[nH]2)cc1 (stereo unspecified) | -3.4 |
| O=C(NCc1c(Cl)cccc1Cl)c1[nH]c(C(F)(F)F)nc1-c1ccccc1 | -27 |
| CC(C)COC(=O)N1CCCCC1c1cc(C(=O)Nc2ccccc2)no1 (stereo unspecified) | -4.3 |
| c1cnc2c(-c3ccc4nccn4c3)cccc2c1 | -3.1 |
| O=C(C[n+]1ccc(C(=O)NCc2ccccc2)cc1)c1ccc(F)cc1 | 3.3 |
| O=C(NCc1ccccc1)C1Cc2c(-c3cccc(F)c3)ccnc2O1 (stereo unspecified) | -3.9 |
| O=C(Nc1ccc2c(c1)OCO2)c1csc([C@@H]2C[C@H](O)[C@@H](CO)O2)n1 | -0.5 |
| CC(O)(c1ccccc1)c1nc(-c2cccc(F)c2)cs1 (stereo unspecified) | 2.1 |
| N#CC(=Nc1cccc(F)c1)C1=C(O)c2ccccc2C1=O | 2.1 |
| COc1ccc2c(c1)[C@]1(C[C@H](O)CO1)C(=O)N2C | 1.3 |
| CC(C)N(C(=O)c1ccc(Cc2cn(C)c3ccccc23)nc1)C(C)C | 0.4 |
| C[C@H](NC(=O)[C@@H]1CCCN1C(=O)[C@@H]1CCCN1C(=O)c1cccs1)c1ccccc1 | 0.9 |
| CCOC(=O)[C@@H](NC(=O)/C=C/[C@H]1O[C@@H](n2cc(C)c(=O)[nH]c2=O)C[C@@H]1O)C(C)C | 5.0 |
| CC(C)=CCn1c2ccc(NC(=O)Nc3ccc(N(C)C)cc3)cc2c(=O)n1C | -1.9 |
| Nc1c(-c2ccccc2)nc2ncccn12 | -0.7 |
| COC(=O)[C@@]12C[C@@H](CC(=O)NCC34CC5CC(CC(C5)C3)C4)C(=O)N(Cc3cccc4ccccc34)C1=CCC(C)(C)C2 | 0.6 |
| O=C1NC[C@@H](CCCCN2C[C@H](Cc3ccc(O)cc3)N(CCC3CCCCC3)C(=O)C2=O)N(CCc2ccc(O)cc2)C1=O | -2.8 |
| NC(Cc1ccccc1)c1csc(Nc2nncc3ccccc23)n1 (stereo unspecified) | 2.1 |
| Cc1c(C(=O)NCc2ccc(Cl)c(Cl)c2)sc(=O)n1Cc1ccc(S(=O)(=O)N(C)C)cc1 | -0.9 |
| COc1ccccc1-c1noc2c1C(=O)N(Cc1cn(-c3ccccc3OC)nn1)CC2 | -4.7 |
| CC1(C(=O)NS(=O)(=O)c2ccc(Cl)cc2)CCN1C(=O)C/C=C/c1ccccc1 (stereo unspecified) | 1.1 |
| Nc1ccc(C=Cc2ccc(N)cc2)cc1 | 3.2 |

Later entries.
| mol | HNF4A DNA FP |
| --- | --- |
| NNC(=O)c1nc2ccccc2s1 | 0.0 |
| CCNC(=O)c1cc2c(c(-c3cccc(-c4cccnc4)c3)n1)[C@H](CCO)N(S(C)(=O)=O)C2 | -4.8 |
| COCOCCn1cc(CN2CCS(=O)(=O)N(Cc3ccc(-c4cccc(N(C)C)c4)cc3)C(CC(C)C)C2=O)nn1 (stereo unspecified) | -7.8 |
| COc1cc(CN2C[C@@H](CO)O[C@@H](n3cnc4c(N5CCOCC5)ncnc43)C2)cc(OC)c1OC | -2.8 |
| COc1cc(OC)nc(Nc2nc(C(N)Cc3ccc(Cl)cc3)cs2)n1 (stereo unspecified) | 0.8 |
| O=NN(CCCl)C(=O)NCC1=C[N+](=O)CC=C1 | 2.0 |
| CCOC(=O)C1=CC[C@@H](c2ccncc2)N(S(=O)(=O)c2ccc(C)cc2)C1 | 0.8 |
| COc1cc(OC)nc(Nc2nc(C(N)c3ccccc3)cs2)n1 (stereo unspecified) | -3.2 |
| CC(=O)Nc1ccc(-c2ccnc3c2CC(C(=O)Nc2cccnc2)O3)cc1 (stereo unspecified) | -2.5 |
| Cn1c(N)nc(N)c(NC=O)c1=O | 5.5 |
| CCOc1ccc(Cl)cc1-c1cc(C(=O)NCc2cccs2)[nH]n1 | 5.4 |
| C#CCNC(=O)C[C@@H]1C[C@@]2(C(=O)OC)CCCCC=C2N(Cc2ccccc2)C1=O | 1.0 |
| COCCNC(=O)C1(C)CCCN(C(=O)c2ccc(OC)c(OC)c2)C1 (stereo unspecified) | -0.2 |
| COc1cc(F)ccc1-c1csc(C(NC(C)=O)c2ccccc2)n1 (stereo unspecified) | 1.7 |
| CCC(c1nc2ccccc2[nH]1)n1c(=O)c(-c2cccnc2)nc2ccccc21 (stereo unspecified) | -1.3 |
| OC1c2cc(Cl)cc(Cl)c2N=C2CCCN21 (stereo unspecified) | 2.0 |
| CC1(C(=O)NS(=O)(=O)c2cccc(F)c2)CCN1C(=O)Cc1cccc2ccccc12 (stereo unspecified) | 0.8 |
| CC(C)C[C@@H]1Cc2[nH][nH]c(=O)c2[C@H](c2ccc(Cl)cc2)O1 | -3.5 |
| COc1ccc(CNC(=O)Nc2ccc3c(c2)c(=O)n(C)n3Cc2cccc(C(F)(F)F)c2)cc1 | 7.3 |
| Cc1ccc(S(=O)(=O)N2C[C@H]3[C@H]4C(=O)N(C5CCCCC5)C(=O)[C@H]4CC(=O)[C@H]3[C@@H]2c2cccc3ccccc23)cc1 | 0.9 |

Brought forward from above: six entries, followed by the next part.
| mol | HNF4A DNA FP |
| --- | --- |
| CCC(c1nc2ccccc2[nH]1)n1c(=O)c(-c2cccnc2)nc2ccccc21 (stereo unspecified) | -1.3 |
| OC1c2cc(Cl)cc(Cl)c2N=C2CCCN21 (stereo unspecified) | 2.0 |
| CC1(C(=O)NS(=O)(=O)c2cccc(F)c2)CCN1C(=O)Cc1cccc2ccccc12 (stereo unspecified) | 0.8 |
| CC(C)C[C@@H]1Cc2[nH][nH]c(=O)c2[C@H](c2ccc(Cl)cc2)O1 | -3.5 |
| COc1ccc(CNC(=O)Nc2ccc3c(c2)c(=O)n(C)n3Cc2cccc(C(F)(F)F)c2)cc1 | 7.3 |
| Cc1ccc(S(=O)(=O)N2C[C@H]3[C@H]4C(=O)N(C5CCCCC5)C(=O)[C@H]4CC(=O)[C@H]3[C@@H]2c2cccc3ccccc23)cc1 | 0.9 |
| CCCCC[C@@H](C)N1C[C@@H](COCc2ccccc2)Oc2cc(N3CC[C@@H](N(C)C)C3)ccc2S1(=O)=O | 2.7 |
| CC(C)CC1OC(C(C)C)Cc2[nH]c(=S)[nH]c(=O)c21 (stereo unspecified) | -3.9 |
| COc1ccc(-c2coc3c(C(=O)Nc4ccc(OC)nc4)cccc23)c(C)c1 | 4.6 |
| CN(CCc1ccccc1)C(=O)c1[nH]c(C(F)(F)F)nc1-c1ccccc1 | -4.1 |
| C[C@@H]1CN([C@H](C)CO)C(=O)c2cc(/C=C/c3ccccc3)cnc2O[C@H]1CN(C)C(=O)NC1CCCCC1 | 2.3 |
| C=Cc1ccc(Cn2c(C)c(C(=O)NCc3ccc4c(c3)OCCO4)sc2=O)cc1 | 1.4 |
| CCOC1=C2[C@H](c3ccccc3Cl)N(S(=O)(=O)c3ccc(C)cc3)C[C@H]2C(C#N)(C#N)C(C#N)(C#N)C1 | 2.8 |
| O=C(NCc1ccccc1)C1Cc2c(-c3ccc(Cl)cc3)ccnc2O1 (stereo unspecified) | 3.1 |
| O=C(CC[C@H]1O[C@@H](n2ccc(=O)[nH]c2=O)[C@H](O)[C@@H]1O)N[C@H](Cc1ccccc1)C(=O)NC1CCCCC1 | 0.8 |
| Cc1ccc(F)c(S(=O)(=O)NC(=O)C2(C)CCN2C(=O)CCc2ccccc2)c1 (stereo unspecified) | 2.5 |
| Cc1cc(O)ccc1-c1cccc2nccn12 | -1.2 |
| COc1ccc(CCNC(=O)Nc2nc(CN)cs2)cc1OC | 3.6 |
| CN(C)CCN(C)c1cc2c(c3c1ccn3C)C1CCC2O1 (stereo unspecified) | -3.3 |
| CC1=C(C(=O)N(C(C)C)C(C)C)CC(CC(=O)NCCc2ccccn2)C(=O)N1Cc1ccc(C(C)(C)C)cc1 (stereo unspecified) | -2.3 |
| CCCCn1nnnc1C(c1ccccc1)N1CCCN(Cc2ccc(F)cc2)CC1 (stereo unspecified) | 4.4 |
| Cc1cccc(C)c1NC(=O)C(c1ccncc1)n1c(=O)c(-c2ccccc2)nc2ccccc21 (stereo unspecified) | -4.3 |
| COc1ccc(CCCNC(=O)C2Cc3c(-c4ccc5c(c4)OCO5)ccnc3O2)cc1 (stereo unspecified) | 6.6 |
| C[C@@H](c1ccccc1)N1C[C@H](COCc2ccccc2)Oc2cc(N3CCC[C@H]3CO)ccc2S1(=O)=O | 4.0 |
| N#Cc1ccc(NC(=S)/N=C(\N)c2ccccc2)cc1 | 1.3 |
| CCOC(=O)[C@]12CCC=C1N(Cc1ccccc1)C(=O)[C@H](CC(=O)N1CCCC1)C2 | -2.1 |
| CCCCNC(=O)C[C@@H]1C[C@@]2(C(=O)OC)CCCCC=C2N(CCc2ccc(OC)c(OC)c2)C1=O | -2.5 |
| S=C(NC1CCCCC1)N1CCC(C2C=NC=N2)CC1 (stereo unspecified) | -3.5 |
| Cn1c(NCCc2ccncc2)nc2cc(-c3cccc(Cl)c3)sc2c1=O | -1.6 |
| Cc1cccc(C)c1NC(=O)C1(C)CN(S(C)(=O)=O)CC(=O)N1CCCn1ccnc1 (stereo unspecified) | -4.0 |
| CN(C)c1ccc(-c2csc(C(C)(O)c3ccc(F)c(F)c3)n2)cc1 (stereo unspecified) | 1.0 |
| CC(=O)Nc1ccc(-c2ccnc3c2CC(C)(C(=O)NCC2CCOCC2)O3)cc1 (stereo unspecified) | -2.5 |
| CC1=C(C(=O)N2CCOCC2)CC(CC(=O)NCc2cccc3ccccc23)C(=O)N1Cc1ccc(C(C)(C)C)cc1 (stereo unspecified) | -2.3 |
| COc1ccc(NC(=O)C2c3ccccc3OCC(=O)N2CCc2ccccc2)cc1 (stereo unspecified) | 4.4 |
| CCOC(=O)C1=CCN(S(=O)(=O)c2ccc(Cl)cc2)C1c1ccc(C)cc1 (stereo unspecified) | 2.7 |
| COc1ccc(CC(N)c2csc(NC(=O)NCc3ccccc3)n2)cc1 (stereo unspecified) | 4.5 |
| c1ccc(OCCNc2ccn3nc(-c4cccs4)cc3n2)cc1 | 1.5 |
| CCN1C(=O)N2C[C@H]3CON(C)[C@H]3C[C@H]2c2ccccc21 | -1.4 |
| Cc1cc(=O)[nH]c(NN=C2CCCCC2C)n1 (stereo unspecified) | -8.8 |
| Cn1cc([C@]2(O)C(=O)Nc3ccccc32)c2ccccc21 | -4.3 |
| O=C(Nc1ccc2c(c1)OCCO2)C(c1ccnc2ccccc12)N1CCN(c2ccc(F)cc2)CC1 (stereo unspecified) | 2.7 |
| O=C(C[C@H]1CC[C@@H](NC(=O)C2CC2)[C@@H](CO)O1)NCc1ccccc1Cl | 3.1 |

Source: PubChem BioAssay (Sanford-Burnham Center for Chemical Genomics)

Some of the compounds tested; count on the stated rates, not on these rows.
